From PubChem
D2 ag – Beta-Arrestin HTS for Positive Allosteric Modulators of the Human D2 Dopamine Receptor: Agonists | hit rate 0.084% among 360,000 | D(2) dopamine receptor (Homo sapiens), P14416 | activation, % (concentration not given with the values) | DiscoveRx PathHunter D2 beta-arrestin, luminescence, 90 min; 100% = 57 uM dopamine signal; in the data active = activation above about 40%; inconclusive = about 15% to 40%; inactive = below about 15%; note: compound concentration not given in the record; the text of the record calls up to 30% inactive
Target sequence (P14416 whole entry, looked up): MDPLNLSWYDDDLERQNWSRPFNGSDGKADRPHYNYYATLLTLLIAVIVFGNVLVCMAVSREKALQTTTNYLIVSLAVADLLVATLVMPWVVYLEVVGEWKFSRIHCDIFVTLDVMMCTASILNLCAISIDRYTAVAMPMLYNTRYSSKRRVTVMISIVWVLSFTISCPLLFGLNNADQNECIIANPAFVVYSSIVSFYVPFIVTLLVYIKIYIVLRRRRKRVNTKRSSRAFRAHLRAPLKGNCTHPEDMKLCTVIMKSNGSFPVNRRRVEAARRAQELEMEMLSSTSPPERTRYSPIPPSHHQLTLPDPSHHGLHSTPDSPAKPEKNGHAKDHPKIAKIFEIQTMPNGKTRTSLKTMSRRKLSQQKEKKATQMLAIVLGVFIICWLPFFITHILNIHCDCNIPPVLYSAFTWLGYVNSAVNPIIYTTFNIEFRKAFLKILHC
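DiscoveRx PathHunter D2 beta-arrestin cells (2,100/well) attached overnight, then compound-stimulated 90 min at 37 C in HBSS/10 mM HEPES/0.1% Tween-20 buffer; beta-galactosidase complementation read by luminescence after 1 h at ambient temperature. Dopamine 57 uM final (EC100) as control.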
TRPML1 blocker – qHTS for Inhibitors of the Human Mucolipin Transient Receptor Potential 1 (TRPML1) | Mucolipin-1 (Homo sapiens), Q9GZU1 | activity change, negative = inhibition, % (test concentration not listed) | TRPML1-inducible cells, Ca2+ dye fluorescence, FDSS; stronger effect = lower value; inhibition of EC80 agonist-evoked calcium signal | AID 624415, 2012 | hit rate 0.02% among 390,000; in the data active means activity change below about -50%; inconclusive means about -30% to -50%; inactive means above about -30%;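 note: stimulus is agonist 54-4 at its EC80 concentration; % is set by controls: 0 for no effect and ±100 for the full control effect; compound concentration not given in the record; the text of the record puts the active cut at -80%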
Target sequence (Q9GZU1 whole entry, looked up): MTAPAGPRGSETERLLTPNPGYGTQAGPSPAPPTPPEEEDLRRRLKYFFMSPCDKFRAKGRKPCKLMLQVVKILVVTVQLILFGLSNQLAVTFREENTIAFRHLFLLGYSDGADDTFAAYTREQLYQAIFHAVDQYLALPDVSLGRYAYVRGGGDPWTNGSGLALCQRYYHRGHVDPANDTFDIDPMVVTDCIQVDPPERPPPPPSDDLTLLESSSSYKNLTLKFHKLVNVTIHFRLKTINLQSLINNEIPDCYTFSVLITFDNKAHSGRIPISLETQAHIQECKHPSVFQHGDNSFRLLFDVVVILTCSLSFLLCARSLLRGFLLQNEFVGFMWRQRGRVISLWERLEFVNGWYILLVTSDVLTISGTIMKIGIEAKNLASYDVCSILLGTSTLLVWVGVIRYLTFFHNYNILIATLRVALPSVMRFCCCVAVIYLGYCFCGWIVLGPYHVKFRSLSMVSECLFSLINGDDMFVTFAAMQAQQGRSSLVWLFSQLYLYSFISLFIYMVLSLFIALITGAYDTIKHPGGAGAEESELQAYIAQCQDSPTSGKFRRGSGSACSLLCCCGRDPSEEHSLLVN
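Calcium fluorescence in TRPML1-DL cells induced overnight with Tet: a 110 s read after compound pin addition, then a 110 s antagonist read after challenge with 54-4 at 4 uM final (EC80).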
D2 PAM – Beta-Arrestin HTS for Positive Allosteric Modulators of the Human D2 Dopamine Receptor: Potentiators. DiscoveRx D2 beta-arrestin cells, luminescence, 90 min; 100% = 57 uM dopamine signal. D(2) dopamine receptor (Homo sapiens), P14416. potentiation, % (concentration not given with the values). hit rate 0.23% among 360,000; active = potentiation of 50% or more; inconclusive = 30% to 50%; inactive = 30% or less;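 note: compound concentration not given in the record; tested on top of an EC20 dose of dopamine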
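PathHunter beta-arrestin assay in DiscoveRx D2 cells. Compounds were added with an EC20 of dopamine (50 nM final) for 90 min at 37 deg C. Luminescence was read 1 h after detection reagent, with 57 uM dopamine as the EC100 control.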
PINK1 expr mod – A Quantitative High throughput Screen to Identify Chemical Modulators of PINK1 Expression | PINK1 immunofluorescence, high-content cytometry, 24 h | Potency, µM (highest dose often 76.6 µM), for inactives: at the top dose activation (PINK1 increase), most hits filed as activators | hit rate 0.2% among 410,000 | AID 624263, 2012; active = well fitted activation curve with a large enough effect; inconclusive = small, poorly fitted or top-dose-only effect; inactive = flat fitted curve, though single readings scatter; cell line not stated here;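 note: potency is the fitted concentration of half-maximal effect; % of control where 0% means no effect; nearly all actives have a fitted effect of over 65% in size; a mitochondrial uncoupler was the plate control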
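Stable cell line treated 24 h with compounds at 5 concentrations (CCCP controls), then fixed and immunostained for PINK1 plus nuclear and cell stains; PINK1 immunofluorescence quantified by laser-scanning microplate cytometry.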
TRPML1 ag – qHTS for Agonists of the Human Mucolipin Transient Receptor Potential 1 (TRPML1) | TRPML1-expressing cells, Ca2+ dye fluorescence, FDSS; host cell line not named in the record; reference of the full effect not given here | AID 624414, 2012 | hit rate 0.12% among 410,000 | activation, % (concentration not given with the values); in the data active = activation above about 50%; inconclusive = about 30% to 50%; inactive = below about 30%; note: 0% is about no effect; the text of the record puts the active cut at 80%
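TRPML1-DL cells, Tet-induced overnight (~16 h, 37 degrees C), loaded 45-90 min at room temperature with Ca8 no-wash calcium dye plus quencher. FDSS fluorescence: 10 s baseline, compound pin-transfer, 110 s agonist read, then EC80 54-4 (4uM final) and 110 s antagonist read.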
Six1-Eya2 blk – qHTS Assay for Inhibitors of the Six1/Eya2 Interaction; activity change, % (test concentration not listed); hit rate 0.56% among 360,000; Homeobox protein SIX1 (Homo sapiens) + Protein phosphatase EYA2 (Homo sapiens), …; AlphaScreen GST-Six1/His-Eya2 binding, biochemical; stronger effect = lower value; control for the full effect not named in the record; in the data active = activity change below about -65%; inconclusive = about -30% to -65%; inactive = above about -30%; note: % is set by controls: 0 for no effect and ±100 for the full control effect; compound concentration not given in the record
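AlphaScreen with GST-Six1 and His-Eya2 (5X mix: 250 nM and 500 nM), glutathione donor and nickel acceptor beads; buffer 50 mM Tris pH 8.0, 300 mM NaCl, 1 mM TCEP; 1 h at 37 C in the dark.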
Starred values were filed as active, the others as inactive; u = inconclusive; x = no result given; [ ] = remark or other dose.

No. | Compound | D2 ag | TRPML1 blocker | D2 PAM | PINK1 expr mod | TRPML1 ag | Six1-Eya2 blk
1 | CCOC(=O)c1sc(NC(=O)c2ccc3nc[nH]c3c2)nc1C | 2.0 | 1.0 | -4.3 | 5.6% | -0.5 | -13.0
2 | O=C(NC(=S)Nc1cccc2cnccc12)c1ccccc1 | 3.2 | -12.8 | 16.9 | -0.9% | 0.6 | 21.8
3 | Cc1ccc(-n2nnnc2SCC(=O)N2CCc3ccccc3C2)cc1 | -0.6 | 1.2 | -15.0 | 6.0%[38.3 µM] | -0.1 | -0.9
4 | O=C(Nc1cccnc1)c1ccc([N+](=O)[O-])cc1Cl | -3.9 | -9.4 | 0.0 | -0.9% | 2.5 | 4.2
5 | O=C(NC1CCCCCC1)C(=O)NC1CCCC1 | -0.7 | -7.5 | -0.3 | 3.4% | 0.2 | 9.7
6 | Fc1ccc(-n2ncc3c(SCc4cccnc4)ncnc32)cc1 | 8.7 | 28.5 | -0.3 | 9.6% | 1.4 | 5.9
7 | O=C(Cc1ccccc1)Nc1ccc(NC(=O)c2cccs2)cc1 | -0.8 | 11.5 | -15.3 | 5.9% | -1.0 | -4.3
8 | CC(C)c1cccc(C(C)C)c1NC(=O)CCl | -4.4 | -3.8 | 14.9 | -3.7% | -0.6 | 9.7
9 | CCOc1cc(CNCCO)cc(Br)c1OCc1ccc(Cl)cc1Cl | -2.0 | -14.3 | -19.4 | -3.8% | 0.1 | -3.5
10 | CCC(=O)C1CCCN(C(=O)c2cccc(OC3CCN(S(C)(=O)=O)CC3)c2)C1 (configuration not stated) | 1.1 | 17.0 | -7.6 | -0.1% | -0.3 | -4.7
11 | O=C(CCCOc1ccc(Cl)cc1Cl)NCc1ccccn1 | -3.4 | -4.2 | -10.0 | -1.0% | -0.4 | 1.9
12 | Cc1cc(=O)[nH]c(N/N=C/c2cccc(Br)c2)n1 | -0.4 | 20.7 | -7.2 | 2.7% | -0.5 | -22.2
13 | CN(C)c1oc(-c2ccccc2[N+](=O)[O-])nc1C#N | -0.5 | 38.3 | 1.3 | -1.1% | 0.0 | -8.3
14 | CCCCc1cc(=O)oc2cc(C)cc(O)c12 | -4.0 | -1.3 | -13.4 | u | 8.6 | 4.9
15 | N#C/C(=C(/O)c1ccc(Cl)c([N+](=O)[O-])c1)c1nc2ccccc2[nH]1 | -2.7 | -19.6 | -9.6 | 4.4% | 0.7 | 5.0
16 | CCn1ncc(C2=NOC(C(=O)NCc3ccccc3)C2)c1C (configuration not stated) | -1.8 | 10.2 | -3.9 | 12.6µM* | -0.1 | 0.2
17 | COc1ccccc1OCC(=O)Nc1nc2c(s1)CC(C)CC2 (configuration not stated) | x | u | x | 2.5% | 2.7 | x
18 | COc1ccc(NC(=O)CSc2nc3ccccc3c(=O)n2C)cc1 | 7.9 | -12.1 | -1.4 | 2.8% | 1.6 | -21.5
19 | COc1ccc(CNC(=O)COC(=O)c2[nH]c(C)c(C(C)=O)c2C)cc1OC | -5.0 | 16.6 | 0.4 | 1.3% | -1.0 | 3.1
20 | CN(C(=O)COC(=O)CNS(=O)(=O)/C=C/c1ccccc1)C1CCS(=O)(=O)C1 (configuration not stated) | -2.0 | 0.4 | -13.6 | -1.0% | 0.2 | 11.1
21 | CCC1(C)Cc2c(sc3nc4n(c(=O)c23)CCS4)CO1 (configuration not stated) | 0.2 | -2.3 | -25.0 | 0.0% | 1.0 | -11.2
22 | O=C1c2cccc3cccc(c23)C(=O)N1Nc1ccccc1 | 0.5 | 0.0 | 4.1 | -0.1% | -0.3 | -0.1
23 | Cc1ccc(C(=O)N2CCSCC2)cc1 | -2.6 | 7.1 | -8.5 | 9.1%[38.3 µM] | -0.5 | 0.0
24 | COc1ccc(C(=O)N2CCNC(=O)C2CC(=O)Nc2cc(Cl)ccc2OC)cc1 (configuration not stated) | 0.9 | 9.8 | -1.4 | 3.1% | 1.0 | 7.2
25 | CCOC(=O)CC1CCCCN1Cc1cn(C)nc1-c1ccc2c(c1)OCCO2 (configuration not stated) | -2.2 | 28.7 | -9.3 | -1.1% | 1.0 | 4.9
26 | O=C1C(Cl)=C(N2CCCCC2)C(=O)N1Cc1ccccc1 | -3.7 | -12.3 | -14.4 | 2.1% | u | 84.0
27 | O=C(c1csc2c1CCCC2)N1CCN(c2ccccc2)CC1 | -2.1 | -2.8 | -16.4 | -3.2%[38.3 µM] | 0.5 | -8.9
28 | Cc1ccc(S(=O)(=O)N2CCC(=O)N([C@H](COCc3ccc(Cl)cc3)C(C)C)CC2)cc1 | x | x | x | -0.4% | 3.6 | 9.7
29 | O=C(CN1C(=O)CSC1=O)Nc1ccc(F)c(F)c1F | -3.5 | -3.5 | -1.3 | -1.4% | 0.4 | 4.1
30 | O=S(=O)(Nc1ccc(-c2cn3c(n2)SCC3)cc1)c1cccs1 | 1.4 | 12.4 | -3.5 | 0.9% | -0.7 | -2.9

An excerpt from above, showing only D2 ag:
no. | Molecule | D2 ag
1 | CCOC(=O)c1sc(NC(=O)c2ccc3nc[nH]c3c2)nc1C | 2.0
29 | O=C(CN1C(=O)CSC1=O)Nc1ccc(F)c(F)c1F | -3.5

The list goes on.
No. | Compound | D2 ag | TRPML1 blocker | D2 PAM | PINK1 expr mod | TRPML1 ag | Six1-Eya2 blk
31 | CCN(CC)c1cnn(C/C(=N\OC)c2ccc(Cl)cc2)c(=O)c1Br | -4.4 | 38.3 | -3.8 | 3.5% | 4.0 | -0.8
32 | Cc1ccc(Nc2nc(CSc3nnc(-c4cccs4)o3)cs2)cc1 | -1.3 | 3.7 | -4.3 | 13.8% | 1.9 | -7.2
33 | CCc1ccc([C@@H]2C[C@H]3[C@@H](CN2S(=O)(=O)c2ccc(C)cc2)C(=O)C[C@@H](c2cccc(Cl)c2)N3S(=O)(=O)c2ccc(C)cc2)cc1 | -3.5 | -3.2 | 0.2 | 1.6% | 7.6 | -1.6
34 | Cc1ccc(-c2nc3cc(C)c(Br)c(C)n3c2CC2CCCCC2)cc1 | x | x | x | 8.8% | 0.1 | 6.0
35 | COC(=O)[C@@]1(C)CC[C@]2(C)CC[C@@]3(C)C(=CC(=O)C4[C@@]5(C)CC[C@H](O)C(C)(C)[C@@H]5CC[C@]43C)[C@H]2C1 (some centres not stated) | 2.2 | -5.1 | -3.6 | -1.4% | -0.9 | 4.5
36 | CC(=O)c1ccc(NC(=O)c2nc3ccccc3nc2N2CCCCC2)cc1 | x | -17.7 | x | 1.3% | 2.4 | x
37 | CCN(CC)c1nc(C)c(C(=S)Nc2cc([N+](=O)[O-])ccc2Cl)s1 | -22.0 | -3.7 | -4.1 | 9.2% | 3.9 | -4.0
38 | Cc1cc(C(=O)NC2CCCC(C)C2C)c2ccccc2n1 (configuration not stated) | 2.5 | -5.8 | 17.0 | 3.8% | -0.1 | 7.7
39 | CC(=O)CCc1oc2ccc(C)cc2c1Cc1ccccc1 | -2.4 | 5.0 | -2.0 | 9.9% | 3.1 | 45.5
40 | COc1cc(COc2ccc(S(=O)(=O)N3CCOCC3)cc2[N+](=O)[O-])ccc1OC(F)F | 8.5 | 8.3 | -0.8 | 1.8% | 3.1 | -14.3
41 | CCOC(=O)CN(Cc1ccccc1)C(C(=O)NC1CCCCC1)c1ccc(C)cc1 (configuration not stated) | x | 44.8 | x | 1.3% | 0.7 | x
42 | COc1ccccc1NC(=O)N1CCCC(c2nc3c(nnn3Cc3ccc(C)cc3)c(=O)[nH]2)C1 (configuration not stated) | -0.1 | 9.9 | -4.6 | 1.6%[38.3 µM] | -0.5 | -0.5
43 | Cc1ccccc1NC(=O)Cc1nc(COC(=O)CNS(=O)(=O)c2cccc(Br)c2)cs1 | -1.0 | -7.1 | -4.6 | 3.3% | -0.4 | -1.0
44 | CCN(CC)CCn1c2c(c(SCC(=O)Nc3cc(C)cc(C)c3)nc1=O)CCC2 | -2.7 | -9.2 | -21.2 | -4.3% | 0.5 | 5.0
45 | CCC(NC(=O)NC1=NCCS1)(C(F)(F)F)C(F)(F)F | -2.3 | 16.3 | 20.1 | 0.3% | 0.5 | 9.2
46 | COc1ccccc1CC(=O)Nc1cccc(C)n1 | -2.9 | 5.2 | 5.0 | 2.6% | 0.0 | 2.8
47 | Cc1cc(C)c2c(N)c(C(=O)Nc3ccccc3F)sc2n1 | -1.3 | 6.9 | -1.1 | 9.8% | 1.4 | 7.2
48 | Cc1ccc(CNC(=O)CS(=O)Cc2nc(-c3ccccc3C)oc2C)cc1 (configuration not stated) | 1.2 | 12.7 | -5.4 | -0.4% | -0.1 | -5.9
49 | O=C(Nc1nnc(Cc2ccc(Cl)cc2)s1)c1cccs1 | 1.8 | 3.6 | 2.0 | -0.3% | -0.6 | 1.2
50 | COC(=O)/C(C#N)=C/c1c(N2CCN(C)CC2)nc2ccccn2c1=O | -2.5 | 28.4 | -6.3 | 2.6% | -0.9 | -9.7
51 | COCC(=O)Nc1ccccc1C(=O)Nc1ccc(OC)cc1 | 0.5 | 16.9 | 3.9 | -2.2% | -0.4 | 2.6
52 | Cc1ccnc(N2C(=O)OC(C)(C)C2(C)O)c1 (configuration not stated) | -1.5 | 9.2 | -4.8 | -1.5% | -0.3 | 6.2
53 | CCn1nc(C(=O)NNC(=O)c2ccccc2)c2ccccc2c1=O | 0.5 | 4.9 | -1.3 | 0.8% | -0.7 | -0.7
54 | Cc1ccc(-n2nnnc2SCC(=O)NCCC2=CCCCC2)c(C)c1 | -3.5 | -4.5 | -1.2 | -2.8% | -0.1 | 0.5
55 | CC(=O)c1ccc(OCC(=O)Nc2ccccc2C(=O)NC2CC2)cc1 | -2.4 | -14.2 | 11.4 | 0.9% | -0.6 | 0.8
56 | Cc1ccc2occ(/C=C/C(=O)c3ccccc3O)c(=O)c2c1 | -4.4 | 21.8 | 2.6 | 4.5% | 0.7 | 0.9
57 | O=C(COC(=O)Cc1c[nH]c2ccccc12)NC1CCS(=O)(=O)C1 (configuration not stated) | -3.0 | -2.9 | 2.2 | 1.7% | -0.3 | 8.4
58 | CCn1ncc(NC(=O)Nc2cccc(C(F)(F)F)c2)c1C(N)=O | 2.0 | 33.1 | -6.5 | -0.7%[38.3 µM] | 0.2 | 3.8
59 | O=C(ONC(=O)C1CCCCC1C(=O)NOC(=O)c1ccccc1)c1ccccc1 (configuration not stated) | u | 13.2 | 11.2 | 0.7% | -0.6 | -1.0
